Compound activity from PubChem.
Vif TR-FRET – HIV-1 Vif–A3G interaction blockers – biochemical, TR-FRET, GST-Vif 1-94, biotin-A3G peptide, dose response retest, primary screen (AID 1117319). TR-FRET GST-Vif / biotin-A3G peptide binding; higher % means a stronger effect; test concentration not given here; strong numbers were not always called active. one-dose inhibition, %; IC50 in µM for titrated hits. 0.57% of 260,000 active;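 active = above the screen mean plus three standard deviations and confirmed in dose response; inconclusive = results disagree or hit not tested in dose response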;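 note: Vif residues 1-94 fused to GST binding biotinylated APOBEC3G peptide 110-148; 0% = full assay without inhibitor and 100% = GST in place of GST-Vif; retest series ran down from 100 µM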
UCH37 inh – inhibitors of human deubiquitinating enzyme UCH37; 0.33% of 330,000 active; inhibition, % (test concentration not listed); AID 588478; Q9Y5K5; purified proteasome/UCH37, Ub-AMC cleavage fluorescence;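 active = mean of two replicates above 20%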;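 note: 0% = compound-free wells with enzyme and 100% = wells lacking proteasome; stock transfer was 100 nL into about 20 µL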
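Reagent: Ub-AMC substrate; assay system: Proteasome-associated human UCH37 deubiquitinase; controls: no-proteasome and no-compound wells; read-out: % inhibition of Ub-AMC cleavage fluorescence; timing: 30 min preincubation with enzyme, 25 min cleavage at room temperature; signal: AMC fluorescence from Ub-AMC cleavage, excitation 355 nm, emission 460 nm; buffer or medium: Tris-HCl pH 7.4 plus ovalbumin, ATP-MgCl2, DTT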
HNF4A DNA FP – change in binding of human HNF4 alpha to DNA; P41235; HNF4a-FITC DNA binding, fluorescence polarization, 1 h; activity change, % at 10 µM; 0.3% of 360,000 active; AID 1224865; in the data active = activity change above about 30%, passing the limit was not always enough;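 note: controls were the assay level and a saturating level of protein; the project sought stronger binding though the title names inhibitors; some compounds called inactive have numbers as strong as hits; positive values seem to mean higher polarization but the record does not say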
Target sequence (P41235 whole entry, looked up): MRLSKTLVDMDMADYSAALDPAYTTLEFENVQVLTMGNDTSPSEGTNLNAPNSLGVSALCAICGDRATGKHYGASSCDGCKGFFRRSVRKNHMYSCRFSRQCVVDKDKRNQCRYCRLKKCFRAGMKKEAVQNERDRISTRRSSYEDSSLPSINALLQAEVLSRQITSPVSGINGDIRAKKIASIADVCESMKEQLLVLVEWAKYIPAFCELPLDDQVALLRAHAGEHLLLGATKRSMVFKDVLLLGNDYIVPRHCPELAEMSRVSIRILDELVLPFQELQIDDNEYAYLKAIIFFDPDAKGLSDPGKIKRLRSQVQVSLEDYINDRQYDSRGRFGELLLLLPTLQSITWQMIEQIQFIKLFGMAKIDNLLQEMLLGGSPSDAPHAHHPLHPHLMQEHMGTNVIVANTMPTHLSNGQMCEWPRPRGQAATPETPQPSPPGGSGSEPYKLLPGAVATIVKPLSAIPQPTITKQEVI
E coli growth – blocks Escherichia coli growth; OD600, 23 h; hits give low values; OD600 absorbance (concentration not given with the values); 0.21% of 330,000 active;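 active = OD600 absorbance below the run mean of sample wells minus 3.6 SD, in any replicate, cut at about 0.56 in these data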;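 note: stock transfer was 300 nL into about 60 µL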
B2AR ag – agonists of human beta-2 adrenergic receptor inducing internalization. Am2.2-beta2AR cells, FAP receptor internalization, flow cytometry; reference of the scale not given here. P07550. 0.43% of 340,000 active. response, % (test concentration not listed);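 active = response above a set limit, near 3 SD of response in nonfluorescent compounds, cut at about 42% in these data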;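 note: stock transfer was 100 nL into about 11 µL; a reference agonist was the positive control; negative values mostly stem from fluorescent compounds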
Target sequence (P07550 whole entry, looked up): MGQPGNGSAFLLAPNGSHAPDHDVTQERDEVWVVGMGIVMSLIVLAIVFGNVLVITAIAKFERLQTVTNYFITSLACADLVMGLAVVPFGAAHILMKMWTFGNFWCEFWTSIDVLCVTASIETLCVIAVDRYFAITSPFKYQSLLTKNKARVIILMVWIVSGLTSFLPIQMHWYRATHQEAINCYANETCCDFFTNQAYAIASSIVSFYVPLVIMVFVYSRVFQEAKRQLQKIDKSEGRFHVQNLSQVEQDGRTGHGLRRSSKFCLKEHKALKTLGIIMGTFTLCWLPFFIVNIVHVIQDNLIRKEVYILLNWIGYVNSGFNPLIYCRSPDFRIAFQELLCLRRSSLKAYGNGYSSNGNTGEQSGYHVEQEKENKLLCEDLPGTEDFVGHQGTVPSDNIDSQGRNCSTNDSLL
LANA-H2B inh – blocks KSHV LANA binding to histone H2A/H2B | Q9QR71 | cell-free LANA-H2A/H2B peptide, fluorescence polarization | inhibition, % (no concentration beside the values) | 0.6% of 320,000 active | AID 2629; in the data active = inhibition mostly above about 10%, no sharp cut-off; inactive = mostly below about 6.7%;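 note: stock transfer was 7.5 nL into about 10 µL; 0% = median of vehicle wells and 100% = median of positive control wells; one replicate is shown; the record names a cut of 25% in any replicate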
A1 inh – inhibitors of the anti-apoptotic protein A1, read as caspase activation; MEF A1-2A-BIM cells, Caspase-Glo 3/7 luminescence, 3 h; percent of clofoctol response, vehicle zero; caspase activation, % (concentration not given with the values); 0.066% of 330,000 active;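 active = over half of replicate activation scores above 10%, or exactly half above 10 with the replicate mean above 10; inconclusive = replicate mean below 10 yet half the replicates above 10; inactive = over half of replicates below 10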;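 note: wells of about 30 µL received 50 nL stock; many hits fall short of the cut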
* marks the source's active call; other numbers are inactive results; i = inactive; ? = inconclusive; · = not tested or not shown; & = joins results of further samples.

SMILES | Vif TR-FRET | UCH37 inh | HNF4A DNA FP | E coli growth | B2AR ag | LANA-H2B inh | A1 inh
Cc1nc2ccc(S(=O)(=O)NCC(=O)NCc3ccc4c(c3)OCO4)cc2s1 | 7% | 1.0 | 0.5 | 0.7 | 3 | 2.3 | -0.1
COc1ccc(C2Oc3ccccc3N2C(C)=O)cc1 (stereo not drawn) | 0% | 1.8 | -0.9 | 0.69 | -13 | 0.5 | -0.2
COc1ccc(NC(=S)N2CCN(S(=O)(=O)c3ccccc3)CC2)cc1OC | · | 2.1 | 0.6 | 0.7 | 10 | 2.4 | 0.2
C/C(Cl)=C/Cn1c(SCCN2CCOCC2)nc2c1c(=O)[nH]c(=O)n2C | -1% | 0.6 | -0.6 | 0.73 | 4 | 1.0 | -2.0
Cc1cc(C(=O)OCC(=O)Nc2cccnc2Cl)c2ccccc2n1 | · | -1.3 | 4.0 | 0.71 | -5 | -1.8 | -0.5
O=c1[nH]c(N/N=C\c2ccc3c(c2)OCO3)nc2ccccc12 | 9% | · | 0.8 | · | 8 | 0.8 | -5.5
CCOc1ccccc1Nc1nnc(SCC(=O)NCC2CCCO2)s1 (stereo not drawn) | -15% | 3.2 | -0.5 | 0.66 | 1 | -3.5 | -0.6
O=C(NCc1ccco1)C(c1ccccc1F)N(Cc1cccnc1)C(=O)Cn1nnc2ccccc21 (stereo not drawn) | 18%&-5% | 1.6 | -5.4 | 0.76 | 6 | 0.2 | 0.1
Cc1c(N)cc2c(c1N)C(C)(C)CC2(C)C | -1% | 1.1 | -2.4 | 0.63 | -1 | · | ·
O=C(CCN1C(=O)S/C(=C\c2ccccc2)C1=O)NC1CCS(=O)(=O)C1 (stereo not drawn) | -4% | 10 | -0.7 | 0.7 | -9 | 5.6 | 0.3
Cc1onc(C(=O)NCCc2ccccc2)c1[N+](=O)[O-] | 1% | 0.0 | -3.9 | 0.65 | -3 | -10.0 | -0.6
CCCNC(=O)CCNC(=O)c1ccc(C(C)(C)C)cc1 | 19% | 1.4 | 0.9 | 0.73 | 5 | -4.3 | 1.2
CC(C(=O)Nc1ccc2c(c1)OCO2)N1CCN(C)CC1 (stereo not drawn) | 10% | 0.9 | -1.2 | 0.67 | -1 | 4.9 | 0.2
COc1ccc(NC(=O)Nc2cc(C)ccc2F)cc1OC | · | 3.2 | 0.3 | 0.68 | 2 | i | -2.7
Cc1nc2c(c(=O)n1CCC(C)C)c1nc3ccccc3nc1n2Cc1ccc2c(c1)OCO2 | · | 0.0 | · | 0.72 | · | -2.0 | 0.1
COc1ccc2nc(NC(=O)CS(=O)(=O)Cc3ccccc3)sc2c1 | 1% | -0.7 | 1.3 | 0.68 | -3 | -2.9 | 1.6
Cc1cccc(NC(=O)COC(=O)c2n[nH]c3ccccc23)c1C | 3% | 0.7 | 2.4 | 0.69 | 11 | -1.7 | 0.3
O=C(Cc1cccs1)N/N=C/C=C/c1ccccc1[N+](=O)[O-] | -7% | · | -0.5 | · | 0 | 1.6 | 0.1
CN(C)c1ccc(-c2nnc(-c3ccc(S(=O)(=O)C(F)F)cc3)o2)cc1 | 3% | -0.3 | 27 | 0.73 | 2 | -12 | 1.1
CCOc1ccccc1N1CCN(C(=O)Cc2ccc(S(=O)(=O)N3CCOCC3)s2)CC1 | 0% | 0.0 | 7.8 | 0.66 | 5 | 2.3 | 0.3
CNC(=O)COc1ccc(-c2nn(C)c(=O)c3ccccc23)cc1 | 24% | 2.0 | 1.2 | 0.71 | 0 | -6.2 | 1.9
CCOc1ccc(OCCC(=O)N(CC)CC(=O)NCc2cccs2)cc1 | -2% | 3.1 | -5.4 | 0.67 | 0 | 0.2 | -0.1
NC(=O)C1=C[C@H](c2ccc(Br)cc2)C[C@H](OCc2ccc(CO)cc2)O1 | -10% | -1.1 | 1.9 | · | 0 | -1.7 | -0.4
CCn1cc(/C=C/C(=O)Nc2ccn(Cc3c(F)c(F)cc(F)c3F)n2)cn1 | · | 4.5 | 0.1 | 0.7 | -10 | -1.7 | -0.2
COc1cc(/C=N/NC(=O)c2ccncc2)ccc1OC(=O)c1cc(OC)c(OC)c(OC)c1 | -9% | · | -1.4 | · | 7 | 2.0 | 0.6
CC1CCN(c2ccc3c(c2)S(=O)(=O)c2cccc(C(=O)O)c2C3=O)CC1 | · | 3.7 | 28 | 0.66 | 10 | -2.4 | -0.3
COc1ccc(N2CCCn3c2nc2c3c(=O)n(CCCc3ccccc3)c(=O)n2C)cc1 | 0% | -0.1 | · | 0.75 | · | 8.1 | 1.6
CCOC(=O)CC1C(=O)NCCN1S(=O)(=O)c1ccc(NC(C)=O)cc1 (stereo not drawn) | · | 2.7 | 1.8 | 0.63 | 0 | -5.1 | -0.2
Cc1ccc(N(CCCCN2C(=O)c3ccccc3C2=O)C(=O)c2cccc([N+](=O)[O-])c2)cc1 | 2% | 0.7 | -0.1 | 0.71 | -2 | -2.0 | 1.3
CC1(C)CC(N2CCOCC2)=CC(=[N+]2CCOCC2)C1 | -5% | 13 | 4.6 | 0.61 | 1 | -3.8 | 0.3
O=C(c1cc2c(s1)CCCC2)N1CCN(C(=O)C2CCCO2)CC1 (stereo not drawn) | 1% | 3.2 | -3.0 | 0.72 | -7 | 5.3 | -0.8
O=S(=O)(Nc1ccc(-c2cn3c(n2)SCC3)cc1)c1ccccc1F | 0% | -0.3 | 8.8 | 0.7 | -7 | 2.5 | 0.1
Cc1cccc(NC(=O)CSc2nc3c(c(=O)[nH]2)CCC3)c1C | · | -0.3 | 0.8 | 0.72 | 1 | 5.1 | 0.8
CC(C)(C)c1ccc(-n2ncc3c2CCCC3NC(=O)c2ccncc2)cc1 (stereo not drawn) | · | 3.6 | -2.2 | 0.7 | 4 | 2.1 | 1.2
C=CCn1c(SCc2csc(C)n2)nc2scc(-c3ccc(C)o3)c2c1=O | 18% | -5.5 | 3.5 | 0.77 | 10 | 3.1 | -0.5
CCOc1ccccc1C(C(=O)NCCOC)N(CCOC)C(=O)Cn1nnc2ccccc21 (stereo not drawn) | -4% | -0.4 | 7.6 | 0.66 | -1 | -0.1 | 0.0
COc1cc(C(=O)CCN2CCC(c3ccccc3)C2)cc(OC)c1OC (stereo not drawn) | ? | · | 1.0 | · | -3 | 0.3 | -0.1
CCOc1ccc(-n2c(COc3ccccc3)nnc2SCC(N)=O)cc1 | -3% | 3.8 | 0.5 | 0.7 | -4 | 0.1 | 2.4
Cc1cc(OCCN2CCC(Cc3ccccc3)CC2)ccc1[N+](=O)[O-] | · | 6.5 | 0.8 | 0.63 | 18 | -2.4 | 0.2
CC(C)NC(=O)CCNS(=O)(=O)c1ccc(Br)cc1 | 4% | 4.9 | -1.9 | 0.66 | 8 | -0.9 | 0.1

Limited to HNF4A DNA FP and LANA-H2B inh, for 3 of the compounds above:
molecule	HNF4A DNA FP	LANA-H2B inh
CNC(=O)COc1ccc(-c2nn(C)c(=O)c3ccccc23)cc1	1.2	-6.2
CCOc1ccc(OCCC(=O)N(CC)CC(=O)NCc2cccs2)cc1	-5.4	0.2
NC(=O)C1=C[C@H](c2ccc(Br)cc2)C[C@H](OCc2ccc(CO)cc2)O1	1.9	-1.7

Continuation.
SMILES | Vif TR-FRET | UCH37 inh | HNF4A DNA FP | E coli growth | B2AR ag | LANA-H2B inh | A1 inh
COc1ccc(CNC(=O)CSc2nnc(C(F)(F)F)n2C)cc1 | -9% | 1.6 | 5.3 | 0.65 | -1 | 0.1 | -0.3
Cc1cc(C(=O)OCC(=O)N2CC(=O)Nc3ccccc32)no1 | ? | 1.0 | 1.7 | 0.74 | 2 | 1.6 | 0.6
CN1CCCN(C(=O)c2ccccc2Cl)CC1 | · | 2.7 | -0.1 | 0.69 | 8 | -0.4 | 0.2
CN(C)S(=O)(=O)c1cccc(NC(=O)COc2nc3ccccc3nc2N2CCOCC2)c1 | 0% | 2.6 | 5.7 | 0.71 | 3 | -2.6 | 0.3
COc1ccc(S(=O)(=O)n2nc(OCc3cccs3)cc2N)cc1 | 7% | 5.1 | -6.5 | 0.69 | 8 | -4.5 | 1.5
COc1ccc(CO/N=C/c2c(C)[nH]c(=O)[nH]c2=O)cc1 | 8% | · | -0.5 | · | 4 | -1.2 | 0.4
CCc1ccc(N2C(=O)CN(CC(=O)OC)C2=S)cc1 | · | -0.6 | -0.8 | 0.69 | 7 | 1.3 | 0.4
COc1ccc(N(Cc2cc3cc(C)ccc3[nH]c2=O)C(C)=O)cc1 | · | -9.0 | 2.3 | 0.68 | -6 | 3.3 | 0.7
O=C(Nc1ccc(F)cc1)c1ccccc1Oc1ccc(C(F)(F)F)cc1[N+](=O)[O-] | · | 2.9 | 2.1 | 0.69 | 5 | 0.8 | -0.3
Cc1csc(=N)n1CC(=O)N1CCc2ccccc21 | 3% | 4.3 | 3.5 | 0.77 | -6 | 2.6 | 0.4
O=C(Cc1n[nH]c(=O)c2ccccc12)Nc1cc(Cl)ccc1-n1cncn1 | -1% | 3.5 | 0.4 | 0.7 | 8 | 2.3 | 0.9
CCOCC(=O)Nc1ccc(C(=O)Nc2ccccc2Cl)cc1 | -3% | 4.9 | · | 0.66 | · | 4.2 | -0.2
O=C(Nc1ccncc1)c1cc(-c2ccccn2)nc2ccc(Br)cc12 | -387% | 1.3 | 44* | 0.73 | 4 | -0.9 | -0.2
CCCCCCC1CCC(C(=O)Nn2c(C)nc3ccccc3c2=O)CC1 (stereo not drawn) | -7% | 5.0 | -0.3 | 0.68 | -1 | 4.0 | -0.4
Cn1c(C(=O)N2CCCC(C(=O)NCCCc3ccccc3)C2)cc2sccc21 (stereo not drawn) | 6% | 1.5 | -1.6 | 0.68 | 10 | · | ·
Cc1ccc(S(=O)(=O)N2CCN(C(=O)COc3ccc(-c4nnco4)cc3)CC2)cc1 | -1% | -2.4 | -4.0 | 0.68 | 2 | -7.6 | 0.8
Cc1ccc(N/C=C/C(=O)c2cccs2)cc1 | 2% | -11 | 7.2 | 0.63 | 22 | 1.8 | -7.6
COc1cc(OC)c(-c2nc3ccccc3s2)cc1OC | · | i | -0.5 | 0.67 | 6 | 1.1 | 0.7
COc1ccc(NC(=O)COc2ccc(/C=N/n3c(C)nnc3C)cc2OC)cc1 | -8% | · | 0.9 | · | 4 | 5.9 | 0.9
O=C(CSc1nnc(NC(=O)C2CC2)s1)Nc1ccccc1Cl | · | 4.5 | -1.5 | 0.72 | -1 | -1.2 | -0.1
Cc1ccc(S[C@@H](CCN2CC[C@H](NC(=O)OCc3ccccc3)CCC2=O)c2ccccc2)cc1 | · | 3.2 | -8.3 | 0.82 | 11 | 4.2 | -0.1
OC(COc1ccc2cc(Br)ccc2c1)CN1CCCC1 (stereo not drawn) | -3% | 7.5 | 2.0 | 0.65 | 25 | 3.9 | 0.3
O=c1c2ccccc2[nH]c(=S)n1CC1CCCO1 (stereo not drawn) | -2% | 4.6 | 0.8 | 0.76 | 0 | · | -0.1
CCOC(=O)c1cn(CC)c2cc(N3CCOCC3)c(F)cc2c1=O | ? | -28 | -5.5 | 0.54* | -3 | 4.5 | 0.2
CCCCc1c(O)nc(SCC(=O)O)[nH]c1=O | -2% | 3.2 | 1.3 | 0.68 | -5 | -0.7 | -2.2
CCCn1c2c(c(O)c(C(=O)Nc3ncccc3C)c1=O)CCCC2 | 0% | 4.4 | 4.2 | 0.68 | -22 | -5.1 | -0.5
